gsp antagonist: antagonists of gsp mutant (McCune-Albright syndrome); gsp-mutant cells, cAMP HTRF, 30 min; control for the full effect not named in the record; Potency, µM (top dose mostly 76.9 µM), without a hit: at the top dose activity change, negative = inhibition, usual class: inhibitors; actives 0.4% (n = 340,000); active = falling curve of any shape with a large fitted effect; inconclusive = falling curve, mostly with a smaller effect; inactive = flat or rising curve; cell line not stated here;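 also: intracellular cAMP measured with PDE inhibitor Ro 20-1724 present during compound exposure; potency is read from the fitted curve at half-maximal effect; % is scaled to controls: 0 for no effect and ±100 for the full control effect; nearly all actives have a fitted effect of over 65% in size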
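Measurement of cellular cAMP by homogeneous time-resolved fluorescence following a 30 min compound exposure at 37C. The PDE inhibitor […] was present throughout; the assay buffer was DPBS with 0.05% BSA and 0.005% Tween 20.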
TRPV1 potentiator: human TRPV1 potentiation | Q8NER1 | actives 0.02% (n = 320,000) | TRPV1-expressing cells, Fluo-8 calcium influx, capsaicin EC20 potentiation; host cell line not named in the record; control for the full effect not named in the record | potentiation, % at 8.33 µM; active means potentiation above 80%; inconclusive means 30% to 80%; inactive means below 30%; also: 0% is about no effect
Target sequence (Q8NER1 whole entry, looked up): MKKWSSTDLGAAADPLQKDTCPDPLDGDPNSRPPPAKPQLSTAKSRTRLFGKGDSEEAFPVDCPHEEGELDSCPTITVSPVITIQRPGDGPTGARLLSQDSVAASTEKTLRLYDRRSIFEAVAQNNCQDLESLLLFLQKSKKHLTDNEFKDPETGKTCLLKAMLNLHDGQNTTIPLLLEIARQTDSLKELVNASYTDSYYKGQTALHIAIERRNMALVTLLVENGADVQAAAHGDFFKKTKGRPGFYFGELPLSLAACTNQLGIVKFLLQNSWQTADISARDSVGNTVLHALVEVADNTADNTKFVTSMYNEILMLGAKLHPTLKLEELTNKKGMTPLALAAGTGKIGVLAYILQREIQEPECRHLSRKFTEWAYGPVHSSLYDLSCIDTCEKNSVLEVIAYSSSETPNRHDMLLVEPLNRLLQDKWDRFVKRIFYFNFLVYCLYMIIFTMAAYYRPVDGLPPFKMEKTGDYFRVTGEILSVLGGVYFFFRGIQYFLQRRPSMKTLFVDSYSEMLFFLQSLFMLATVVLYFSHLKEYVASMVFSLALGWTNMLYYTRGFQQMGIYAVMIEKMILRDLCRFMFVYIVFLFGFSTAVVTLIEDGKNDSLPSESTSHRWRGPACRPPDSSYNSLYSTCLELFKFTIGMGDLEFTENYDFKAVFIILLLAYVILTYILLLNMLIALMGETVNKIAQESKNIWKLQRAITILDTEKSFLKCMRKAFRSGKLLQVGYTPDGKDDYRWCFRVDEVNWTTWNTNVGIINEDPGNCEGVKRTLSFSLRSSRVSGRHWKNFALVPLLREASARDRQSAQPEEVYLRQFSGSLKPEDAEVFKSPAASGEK
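Cells expressing TRPV1 were dye-loaded with Fluo-8 and read kinetically: 10 s baseline, 3 min after compound (agonist portion), then 2 min after EC20 capsaicin (allosteric enhancer portion). Calcium-bound dye fluorescence at 480/520 nm.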
TRPML1 inh: human mucolipin-1 channel inhibition; Q9GZU1; AID 624415; activity change, negative = inhibition, % (no concentration beside the values); TRPML1-inducible cells, Ca2+ dye fluorescence, FDSS; active compounds read low; inhibition of EC80 agonist-evoked calcium signal; actives 0.02% (n = 390,000); in the data active means activity change below about -50%; inconclusive means about -30% to -50%; inactive means above about -30%;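 also: stimulus is agonist 54-4 at its EC80 concentration; % is scaled to controls: 0 for no effect and ±100 for the full control effect; compound concentration not given in the record; the text of the record puts the active cut at -80%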
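Tet-induced TRPML1-DL cells loaded with Ca8 no-wash calcium dye were read kinetically on FDSS. Compound addition was followed by EC80 agonist 54-4 (4 uM final); inhibition was read over 110 s.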
ClpP mod: qHTS Assay for Activators of ClpP; ATP-dependent Clp protease proteolytic subunit (Bacillus subtilis (strain 168)), P80244; purified B. subtilis ClpP, FRET peptide cleavage, 20 min; Potency, µM (highest dose often 57.5 µM), for inactives: at the highest dose activity change, negative = active; actives 1.9% (n = 340,000); active = well fitted falling curve with a large enough effect; inconclusive = small, poorly fitted or top-dose-only effect; inactive = no such curve, though single readings can be large or run the other way; also: potency is read from the fitted curve at half-maximal effect; the source files actives as falling curves though it sought activators and does not explain the sign; nearly all actives have a fitted effect of over 65% in size; many hits overshoot -100%
Target sequence (P80244 whole entry, looked up): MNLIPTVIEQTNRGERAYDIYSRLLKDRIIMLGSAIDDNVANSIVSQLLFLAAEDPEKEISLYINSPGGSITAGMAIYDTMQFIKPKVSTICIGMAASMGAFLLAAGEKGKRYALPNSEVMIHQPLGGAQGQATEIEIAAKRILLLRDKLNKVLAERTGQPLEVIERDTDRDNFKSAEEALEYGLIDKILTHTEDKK
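Buffer: 100 mM Tris/HCl pH8, 100 mM KCl, 0.05% low protease BSA, 2.5% glycerol, 0.01% Tween-20. ClpP 10 microg/mL final; 20 min RT; delta FRET normalized to ADEP and DMSO controls.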
Menin MLL FP FL: displaces fluorescein MLL peptide from human menin | Fluorescence polarization, fluorescein-MLL peptide displacement from menin | FP activity change, % at 61.4 µM | 290,000 tested, under 10 active | AID 1766; inconclusive = falling polarisation curve, or a change in total fluorescence; inactive = total fluorescence flat and polarisation flat or rising; no compound was filed as active; the % refers to the polarisation; negative = inhibition;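 also: % of control where 0% means no effect; inhibitors lower the polarisation; unlabelled MLL peptide was the positive control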
gsp agonist: activates gsp, the McCune-Albright syndrome mutation; Potency, µM (highest dose often 76.9 µM), inactives show at the highest dose activation (cAMP increase), usual class: activators; AID 624287; gsp mutant cells, cAMP HTRF, 30 min; control for the full effect not named in the record; actives 0.13% (n = 340,000); active = well fitted activation curve with a large enough effect; inconclusive = small, poorly fitted or top-dose-only effect, or another doubt; inactive = no such curve, though single readings can be large or run the other way; cell line not stated here;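 also: phosphodiesterase inhibitor Ro 20-1724 added with compounds to block cAMP breakdown; potency is read from the fitted curve at half-maximal effect; nearly all actives have a fitted effect of over 60% in size; about a fifth of the inactives were tested at one dose only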
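Cells in DMEM/10% FBS with G418 were pretreated with compounds in DMSO plus […] (300 uM stock) for 30 min at 37C. cAMP was measured by HTRF (cAMP-d2 plus anti-cAMP antibody-K) after 30 min at room temperature.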
Sfp PPTase inh: inhibitors of Bacillus subtilis Sfp phosphopantetheinyl transferase; Biochemical Sfp PPTase activity, qHTS; Potency, µM, inactives show max response, negative = inhibition, actives largely listed as inhibitors; actives 3.5% (n = 310,000); AID 1490; Q9F4F7; active = well fitted inhibition curve with a large enough effect; inconclusive = small, poorly fitted or top-dose-only effect, or another doubt; inactive = no such curve, though single readings can be large or run the other way;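 also: the enzyme is Sfp with the accession as filed and its product quenches rhodamine fluorescence; potency is read from the fitted curve at half-maximal effect; 0% = enzyme reaction without inhibitor and -100% = no enzyme wells; top concentration of the series not given in the record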
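Fluorescence-quenching assay with 15 nM Sfp, 5 uM rhodamine-CoA and 12.5 uM BHQ-2-labelled ybbR peptide in pH 7.6 Hepes/MgCl2 buffer. Enzyme was pre-incubated with compound for 15 min at room temperature. Rate was taken from the 30-min fluorescence change (525/598 nm).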
Active calls of the source: *; ? = inconclusive; · = no result given; & = joins results of further samples; [ ] = another dose, or the depositor's remark.

Start of the data: the first four records as a preview:
SMILES | gsp antagonist | TRPV1 potentiator | TRPML1 inh | ClpP mod | Menin MLL FP FL | gsp agonist | Sfp PPTase inh
CC(Cc1c[nH]c2ccccc12)NC(N)=O (centres undefined) | -8% | -5 | -2 | 1.3% | -2.8 | -1%[15.4 µM] | -2%
Nc1cnn(Cc2ccccc2F)c1 | -6% | -11 | 7 | 1.3% | 2.8 | -101%[inhibitor] | 8%
CCc1ccccc1NC(=O)Nc1ccon1 | 12% | 22 | 2 | -1.7% | 3.6 | 10% | 8%
CC(C)=C1C2CCC1C1C(=O)N(c3nc(-c4ccc(F)cc4)c(C)s3)C(=O)C21 (centres undefined) | ? | 16 | 12 | -2.6% | 1.0 | -26% | -7%

The list itself, repeating the preview:
SMILES | gsp antagonist | TRPV1 potentiator | TRPML1 inh | ClpP mod | Menin MLL FP FL | gsp agonist | Sfp PPTase inh
CC(Cc1c[nH]c2ccccc12)NC(N)=O (centres undefined) | -8% | -5 | -2 | 1.3% | -2.8 | -1%[15.4 µM] | -2%
Nc1cnn(Cc2ccccc2F)c1 | -6% | -11 | 7 | 1.3% | 2.8 | -101%[inhibitor] | 8%
CCc1ccccc1NC(=O)Nc1ccon1 | 12% | 22 | 2 | -1.7% | 3.6 | 10% | 8%
CC(C)=C1C2CCC1C1C(=O)N(c3nc(-c4ccc(F)cc4)c(C)s3)C(=O)C21 (centres undefined) | ? | 16 | 12 | -2.6% | 1.0 | -26% | -7%
CCn1c(=S)ccc2ccc(OC)cc21 | 18% | 3 | -7 | 2.8% | 4.7 | ? | 13%
CC(NC(=O)c1cccc(Cn2cc([N+](=O)[O-])cn2)c1)c1ccc(C(C)(C)C)cc1 (centres undefined) | 1% | 7 | 21 | 1.2% | 4.1 | 4% | 35%[activator]
CC(C)CN(C)C(=O)CCc1nnc(Cc2ccc(-c3ccccc3)cc2)o1 | -6% | -1 | 17 | 0.6% | 0.9 | ? | -5%
Cc1cc(C(=O)CSc2nnc(-c3cccs3)o2)c(C)n1-c1ccccc1 | -22% | -2 | -4 | 1.0% | 8.0 | -39%[inhibitor] | -14%
O=C(Cn1cnc2c(cnn2-c2ccc(Cl)cc2)c1=O)NCCc1ccccc1 | 4% | 3 | 23 | -22% | 1.8 | ? | 11%
Cc1cc(C)c2c(=O)[nH]c(SCC(=O)Nc3cccc(S(=O)(=O)N(C)C)c3)nc2n1 | 6% | ? | 2 | 1.9% | · | -11%[15.4 µM] | ·
Oc1ccc(C[C@H]2CNCCN2CCC23CC4CC(CC(C4)C2)C3)cc1 | 4% | 7 | -5 | -0.1% | · | · | ·
COc1ccc(OC)c(S(=O)(=O)N2CCC3(CC2)CC(=O)c2ccccc2O3)c1 | 3% | -8 | 9 | ? | · | -6%[15.4 µM] | ·
COCCn1c(SCC(=O)Nc2ccccc2F)nc2c([nH]c3ccccc32)c1=O | -2% | 4 | 7 | -1.1% | · | -2%[15.4 µM] | -22%
Cc1ccc(S(=O)(=O)N2[C@@H](c3cccc(C)c3)C(C(=O)O)=C[C@H]2C(C)(C)C)cc1 | -2% | · | 34 | -1.3% | · | · | ·
CC(Oc1cc2oc(=O)c3c(c2cc1Cl)CCCC3)C(=O)NCc1ccncc1 (centres undefined) | 1% | 7 | 24 | -4.0% | · | 1% | 2%
CCOC(=O)Cn1cc(C#N)c(=O)[nH]c1=O | 9% | -5 | -10 | · | 1.2 | 22% | 8%
CC(C)C(NS(=O)(=O)c1ccc2c(c1)Cc1cc(S(=O)(=O)NC(C(=O)O)C(C)C)ccc1-2)C(=O)O (centres undefined) | 4% | -9 | -15 | -0.2% | -9.9 | 4%[15.4 µM] | 14%
CCCCOc1ccc(C(C)NC(=O)C2CCCN(S(=O)(=O)CCC)C2)cc1 (centres undefined) | 13% | -4 | -3 | 3.6% | 4.4 | -6%[15.4 µM] | 5%
CC1CCCCC1NC(=O)CCCN1C(=O)c2ccccc2C1=O (centres undefined) | 4% | · | 1 | -2.0% | · | 17%[15.4 µM] | ·
O=C(Nn1c(Cc2cccs2)nc2ccccc2c1=O)c1ccc(F)c(F)c1 | 4% | -13 | 10 | 0.8% | 1.0 | -15% | 7%
O=C(N/N=C/c1c(F)cccc1Cl)c1ccc(Cn2cc(Br)cn2)o1 | -5% | 15 | -8 | -8.5% | -0.9 | -50%[inhibitor] | 19%
COCc1ccc(-c2c(-c3ccsc3)sc3ccccc23)cc1 | -11% | 3 | 22 | -24% | · | 27% | ·
O=C(Oc1ccccc1)c1cccc2cccnc12 | 8% | 17 | -8 | -0.3% | 0.3 | 6% | -19%
O=C(NCCc1ccccc1)[C@@H]1CC=C[C@@H]2CCN(C3CCCCC3)C(=O)[C@@H]21 | -1% | · | 9 | -0.3%&-2.9% | · | · | ·
CC(C)N1CCC2(CC1)Oc1ccc(Br)cc1C1CC(c3cccnc3)=NN12 (centres undefined) | 7% | -9 | -4 | -4.1% | ? | 4% | -17%

(next part)
SMILES | gsp antagonist | TRPV1 potentiator | TRPML1 inh | ClpP mod | Menin MLL FP FL | gsp agonist | Sfp PPTase inh
O=C(O)CNC(=O)C1COc2ccccc2O1 (centres undefined) | 7% | -1 | 35 | -1.4% | 0.1 | -26% | 14%
O=C(Nc1nnc(CC(=O)N2CCOCC2)s1)C1COc2ccccc2O1 (centres undefined) | -7% | -10 | 2 | -0.5% | 1.3 | -10% | 7%
Cc1ccc(C(C(=O)NC2CCCCC2)N(CC2CCCO2)C(=O)CNC(=O)c2ccco2)cc1 (centres undefined) | 12% | -11 | 0 | -0.7% | -1.5 | 6% | 9%
CCn1c(=O)c(C(=O)NCCc2ccc(OC)c(OC)c2)c(O)c2ccccc21 | -6% | -2 | -3 | ? | 1.0 | 5% | ?
Cc1ccccc1/C=N/NC(=O)c1sccc1C | -3% | 3 | 6 | ? | -1.6 | -3% | 14%
Cc1nn(-c2ccccc2)c2c1c(C)c(CCC(=O)NCC1CCCO1)c(=O)n2C (centres undefined) | -13% | -5 | -5 | -22% | · | 0% | 20%
Cc1cccc(C)c1OCC(=O)Nc1cccc(C(=O)O)c1 | -13% | 3 | 12 | · | -0.8 | 20%[15.4 µM] | ?
CC1CCCCC1NC(=O)COn1nnc2ccc(Cl)cc21 (centres undefined) | 1% | -1 | -5 | 0.8% | 4.1 | -21% | 0%
CS(=O)(=O)N1CCN(c2ccccc2NC(=O)c2cccc3ccccc23)CC1 | -20% | 0 | 35 | 1.0% | 0.5 | 10% | 7%
NC(=O)COC(=O)Cc1coc2cc3c(cc12)CCC3 | -46% | -19 | 4 | · | -1.2 | -3%[15.4 µM] | -10%
CCOc1cc(CN2CCN(C(=O)c3cccc4ccccc34)CC2)ccc1OC | -4% | 3 | -14 | 0.9% | 4.7 | -16% | ?
COC(=O)c1ccc(NC(=O)c2cccc(C)c2)cc1 | -4% | -7 | 10 | 1.2% | 3.2 | 22%[15.4 µM] | 7%
c1ccc(-n2nnnc2NCCc2c[nH]c3ccccc23)cc1 | ? | -11 | 17 | -4.8% | 2.6 | 0% | 4%
COC(=O)Nc1sc2c(c1C(=O)NC1CC1)CCCCCC2 | 1% | -2 | -11 | -2.9% | 1.0 | -3% | 32µM*
CS(=O)(=O)c1ccc(NS(=O)(=O)c2ccc(Cl)c(C(=O)NCc3ccco3)c2)cc1 | 11% | 6 | 0 | -8.1% | · | -23% | ·
CC(=O)N1CCc2cc(S(=O)(=O)NCCC(=O)Nc3ccc4c(c3)OCCO4)ccc21 | 1% | 0 | 1 | -4.0% | 3.2 | 17% | 18%
CCn1cc(/C=C(\NC(=O)c2ccccc2Cl)C(=O)N2CCOCC2)c2ccccc21 | -7% | 2 | 16 | -5.2% | -2.5 | 5% | -8%
Cc1c(C)c2ccc(OC(C)C(=O)N[C@@H](Cc3c[nH]c4ccccc34)C(=O)O)c(C)c2oc1=O (some centres undefined) | 0% | -10 | · | 4.5% | -2.2 | · | 5%
O=C(CSc1nnc(CNC(=O)c2ccccc2F)o1)Nc1cccc(C(F)(F)F)c1 | -6% | 4 | 13 | -2.4% | · | -1% | 6%
CCOc1ccc(S(=O)(=O)N2CCOCC2)cc1NC(=O)C1CSC2(C)CCC(=O)N12 (centres undefined) | 8% | -1 | 11 | 1.9% | · | 1%[15.4 µM] | ·
Fc1ccccc1Cn1nnc(-c2ccc3c(c2)OCO3)n1 | 7% | -14 | 12 | -2.7% | 3.2 | 2% | -15%
CN(C(=O)CN1CCCCCC1)c1c(N)n(Cc2ccccc2)c(=O)[nH]c1=O | 7% | 5 | 3 | -0.5% | · | -5% | ·
COc1ccc(Cl)cc1C(=O)Nc1ccc(Br)c(C)n1 | 4% | 7 | -2 | · | 4.1 | -3%[15.4 µM] | -7%
O=C(CSCc1ccccc1F)NCc1ccc(F)cc1 | 10% | -17 | 0 | · | -2.1 | 10% | 3%
O=C1NC(=O)C(Nc2cccc3ccccc23)S1 (centres undefined) | -5% | 11 | 4 | -16% | -0.1 | -15% | 18%

(listing goes on)
SMILES | gsp antagonist | TRPV1 potentiator | TRPML1 inh | ClpP mod | Menin MLL FP FL | gsp agonist | Sfp PPTase inh
Cc1cc(C)c(NC2=NCC(=O)N2C2CCCCC2)c(C)c1 | -20% | -19 | 10 | 0.7% | -0.7 | -2% | -7%
CC(C)(C)NS(=O)(=O)c1cccc2nsnc12 | 1% | · | -3 | -1.4% | · | -11% | ·
CCOC(=O)N1CCN(C(=O)c2ccc3c(=O)n(-c4ccccc4F)c(=S)[nH]c3c2)CC1 | ? | 2 | 12 | -11% | -11 | -21% | -9%
CCOC(=O)c1c(NC(=O)CN2CCN(c3ccc(Cl)cc3)CC2)sc(C)c1C | 7% | 10 | 9 | -0.3% | 0.8 | -27% | 2%
CCOC(=O)Cn1c(=NC(=O)CSC(C)=O)sc2cc(OC)ccc21 | -9% | 10 | -9 | -18% | 3.2 | 0% | 3%
O=S(=O)(Nc1ncn[nH]1)c1ccc2ccccc2c1 | -8% | -12 | -5 | -0.2% | 2.1 | 13% | 7%

High-throughput results deposited in PubChem by National Center for Advancing Translational Sciences (NCATS).
